AmpC nodet inh – Promiscuous and Specific Inhibitors of AmpC Beta-Lactamase (assay without detergent) | actives 1.8% (n = 71,000) | AmpC nitrocefin hydrolysis, absorbance 480 nm, no detergent; potencies from a single point are estimates | AID 585, 2007 | Potency, µM (titrated, usually from 28.7 µM), for the others: top-dose activity change, negative = inhibition | P00811; active = falling curve, for most hits resting on a single point; inconclusive = weak or doubtful change; inactive = flat or rising curve; note: % of control where 0% means no effect; about half of the hits show no inhibition at the top dose; a quarter of the inactives give rising signals
Target sequence (P00811 whole entry, looked up): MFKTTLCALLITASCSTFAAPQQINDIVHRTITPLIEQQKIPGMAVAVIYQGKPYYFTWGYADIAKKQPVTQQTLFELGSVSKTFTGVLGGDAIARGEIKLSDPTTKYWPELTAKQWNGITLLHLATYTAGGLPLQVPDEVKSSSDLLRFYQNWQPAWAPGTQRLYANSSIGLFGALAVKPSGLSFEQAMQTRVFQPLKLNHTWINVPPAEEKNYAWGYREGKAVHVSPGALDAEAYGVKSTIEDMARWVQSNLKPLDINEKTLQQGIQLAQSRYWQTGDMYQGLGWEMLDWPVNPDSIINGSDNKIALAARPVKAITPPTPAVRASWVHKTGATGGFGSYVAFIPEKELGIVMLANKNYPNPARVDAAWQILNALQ
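Enzyme, pH 7.0 phosphate. Compound titrations were pre-incubated with AmpC for 15 min at room temperature before nitrocefin (stock 800 uM) addition; product formation was recorded at 480 nm every 20 s for 4 min.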
Numbers without * were called inactive; ? = inconclusive; [ ] = remark or other dose. Potency is the fitted concentration of half-maximal effect. These rows are one share of the data. The share of hits here may be higher or lower than overall.

SMILES	AmpC nodet inh
CC(CCc1ccccc1)NC(=O)C1CCN(S(=O)(=O)N2CCCCC2)CC1 (stereo not drawn)	43%
CCOC(=O)N1CCC(Nc2ncnc3c2cnn3-c2ccc(Cl)cc2)CC1	25%
CC(=O)Nc1c2c(nn1-c1ccc(C)cc1C)CSC2	4%
COc1cc(C(c2sc3nc(C)nn3c2O)N2CCN(c3ccccc3)CC2)cc(OC)c1OC (stereo not drawn)	-4%
COC(=O)c1ccc2c(=O)n(CC3CCCO3)c(=S)[nH]c2c1 (stereo not drawn)	-18%
O=C(O)c1cccc(NC(=O)c2cccc(NC(=O)C3CCCO3)c2)c1 (stereo not drawn)	-12%
CCOC(=O)CNC(=O)C(Cc1ccccc1)NS(=O)(=O)c1ccc2c(c1)CCC(=O)N2 (stereo not drawn)	10%
CC(C)C(C(=O)NCc1ccco1)N(C(=O)CNS(=O)(=O)c1ccccc1)C1CCCC1 (stereo not drawn)	16%
CCCCCc1ccc(CC(=O)O)cc1	-11%
Cc1sc2nc3c(C(=O)N4CCN(c5ncccn5)CC4)cccn3c(=O)c2c1C	46%
CCCOc1ccc(N2C(=O)CC(N3CCOCC3)C2=O)cc1 (stereo not drawn)	10%
CCOCCn1c(COc2ccccc2)nc2ccccc21	11%
Cc1ccc(C)n1NC(=O)c1cccs1	-10%
O=NN(CCCl)C(=O)NCCCl	3%
O=C(CSc1nc2ccccc2[nH]1)NC(=O)NCc1ccco1	-14%
Cc1ccc(-n2c(Cn3cnc4ccccc43)nnc2SCC(=O)O)cc1	-10%
CCOC(=O)C1=C(C)NC(SCC(N)=O)=C(C#N)C1c1ccncc1 (stereo not drawn)	5%
COc1cc(C)c(C)cc1S(=O)(=O)N1CCN(Cc2ccccc2)CC1	98%
Cn1c2c(c(=O)n(C)c1=O)C(c1ccc(O)cc1)Nc1ccccc1O2 (stereo not drawn)	10%
CC(C)(Oc1ccc(Cl)cc1)C(=O)NCc1ccncc1	-1%
NCCc1ccc(S(=O)(=O)F)cc1	5%
COc1ccc(CN(C2CCCC2)S(=O)(=O)c2ccc(-n3cnnn3)c(OC)c2)cc1OC	106%
O=C1CC(c2ccc(S(=O)(=O)N3CCCCC3)cc2)CN1 (stereo not drawn)	-2%
CC1(C)CC(=O)C(C=NCCO)=C(O)C1	2%
CCOC(=O)C1CCN(C(=O)c2ccc(NC(=O)C3CCCO3)cc2)CC1 (stereo not drawn)	6%
COCCCN(C(=O)Cn1ncc2c(=O)oc3ccc(C)cc3c21)C(C)c1ccncc1 (stereo not drawn)	-1%
CCOc1ccccc1NC(=O)c1cccc(NC(=O)c2ccco2)c1	1%
Cc1ccnc(NS(=O)(=O)c2cccs2)c1	-1%
CCOC(=O)Cn1c(=O)oc2cc(S(=O)(=O)NCCCc3ccccc3)ccc21	0.32µM*[single pt active]
COc1ccc(C(CC(=O)O)NC(=O)c2cccs2)cc1 (stereo not drawn)	-2%
CCOC(=O)c1cc(C(=O)c2cc(F)ccc2O)coc1=N	-3%
Cc1nn(Cc2ccc(Cl)c(Cl)c2)c(C)c1NC(=O)c1cc(C2CC2)on1	59%
CCN(CC(=O)Nc1ccc2c(c1)OCCO2)c1ccc(S(=O)(=O)N2CCOCC2)cn1	22%
Cc1ccc(CNc2ccc(O)cc2)cc1	4%
CN1CCN(C2=NC3(CCCC3)C(C#N)C(=O)N2)CC1 (stereo not drawn)	-4%
Clc1cccc2sc(N3CCCC3)nc12	-7%
CCN(CC)c1ccc(CC2C(=O)N(C)C(=O)N(C)C2=O)cc1	74%
CCOC(=O)C1=C(C)NC(C)=C(C(=O)OCC)C1C(=O)OCC(=O)N1CCc2ccccc2C1	122%
CCC(=O)Nc1cc(C(C)C)c(O)cc1C	-5%
O=C(Cn1[nH]c(=O)c2ccccc2c1=O)OCC(=O)N1CCCc2ccccc21	40%
CSC1=NCCN1C(=O)c1ccc(Br)o1	-8%
COc1ccccc1CNC(=O)COC(=O)c1cnccn1	5%
COc1ccc(OC)c(C(c2nnnn2CCc2ccccc2)N2CCN(c3ccccc3)CC2)c1 (stereo not drawn)	28%
CC(C)(C)c1[nH]nc2c1C(c1ccc(OC(=O)c3ccco3)cc1)C(C#N)=C(N)O2 (stereo not drawn)	-4%
Nc1cc(CN2C(=O)c3ccccc3C2=O)cc(Cl)c1O	4%

Ordered by length of the SMILES (highest first): 3 of the compounds above
SMILES	AmpC nodet inh
CCOC(=O)C1=C(C)NC(C)=C(C(=O)OCC)C1C(=O)OCC(=O)N1CCc2ccccc2C1	122%
COc1ccc(OC)c(C(c2nnnn2CCc2ccccc2)N2CCN(c3ccccc3)CC2)c1 (stereo not drawn)	28%
CCN(CC)c1ccc(CC2C(=O)N(C)C(=O)N(C)C2=O)cc1	74%

New compounds follow:
SMILES	AmpC nodet inh
O=C(Nc1c(C(=O)O)[nH]c2ccccc12)NC1CCCCC1	-23%
Cc1ccccc1OCC(=O)Nc1ccc(N2CCN(C(=O)C(C)C)CC2)c(Cl)c1	82%
CCCCN(C(=O)c1cc(OC)c(OC)c(OC)c1)C1=CC2CCC(C1)N2C (stereo not drawn)	15%
O=C(CCS(=O)(=O)c1cccc2nonc12)NC1CCCCCC1	6%
CCCCn1c(SCC(=O)N2CCCc3ccccc32)nc2c1c(=O)n(C)c(=O)n2C	98%
Cn1c(C(=O)OCC(=O)NCc2ccco2)cc2sccc21	-1%
CC(C)NC[C@H]1CCc2cc(CO)c([N+](=O)[O-])cc2N1	-4%[12.8 µM]
O=C(CSC1=NC(=O)C(Cc2ccccc2)C(=O)N1)NC1CCCCC1 (stereo not drawn)	-6%
CCOC(=O)C(C)Sc1nnc(Cc2cc(=O)[nH]c(=O)[nH]2)n1-c1ccc(OCC)cc1 (stereo not drawn)	4µM*[single pt active]
COc1ccc(CNc2ncnc3ccc(-c4c(C)noc4C)cc23)c(OC)c1	32%
Cc1ccc(/C(O)=C2/C(=O)C(=O)N(CCN3CCOCC3)C2c2cccnc2)cc1 (stereo not drawn)	-2%
CCOC(=O)c1ccc(NS(=O)C23CC4CC(CC(C4)C2)C3)cc1 (stereo not drawn)	21%
CN(C)[C@@H]1C(=O)C(C(N)=O)=C(O)[C@]2(O)C(=O)C3=C(O)c4c(O)ccc(Cl)c4[C@](C)(O)[C@H]3C[C@@H]12	-12%[12.8 µM]
N#C[C@@H]1[C@@H]2C(=O)N(c3ccc4c(c3)OCCO4)C(=O)[C@@H]2C2c3ccccc3C=CN21 (stereo partly drawn)	-2%
CN(C(=O)OCc1ccccc1)C(CC(N)=O)C(=O)O (stereo not drawn)	-17%
CC(C)C[C@@H](CC(=O)N[C@@H](CCC(=O)O)CC(=O)O)NC(=O)[C@@H]1CCCC[C@H]1NC(=O)C[C@@H](NC(=O)C[C@H](CO)NC(=O)[C@@H]1CCCC[C@H]1N)C(C)C	42%
C[C@@H](C(=O)NCCc1c[nH]c2ccccc12)[C@H]1C[C@]1(C)[C@H](NC(=O)OCc1ccccc1)c1ccccc1	6%
CCOC(=O)c1ccc(Oc2nc(NC(C)(C)C)nc(N(C)C)n2)cc1	58%
COc1cccc(NC(=O)C2CCN(c3ncccn3)CC2)c1	99%
Cc1ccc(C(=O)CCC2CCCC2=O)cc1 (stereo not drawn)	9%
CCCC1(CCC)NC(=O)NC1=O	-3%
CCc1cccc2c(=O)c(C(=O)N3CCOCC3)c[nH]c12	4%
CCOCCCNS(=O)(=O)c1ccc(Br)cc1	6%
CS(=O)(=O)N(CC(=O)N1CCC(C(N)=O)CC1)c1ccc(Oc2ccccc2)cc1	80%
CCCCOc1ccc(C(=O)Oc2ccc(C)nc2)cc1	32%
CC(Cc1ccccc1)N/C=C1/CC(=O)NC1=O (stereo not drawn)	5%
Cc1nc(NCc2ccccc2)c2nc(-c3ccccc3)n(CCN3CCCCC3)c2n1	88%
CCOc1cccc(C(=O)Nc2ccc(N3CCN(S(C)(=O)=O)CC3)cc2)c1	3%
CCCCN(CCCC)S(=O)(=O)c1ccc(C(=O)Nc2nnc(COC)o2)cc1	1%
NC(=O)c1c(NC(=O)COC(=O)CSc2nnc(-c3ccc(Cl)cc3)o2)sc2c1CCC2	-9%
CCCN(CCC)C(=O)CSc1nc2n[nH]c(C)c2c(=N)n1-c1ccc(OCC)cc1	146%
CCOC(=O)c1ccccc1NC(=O)CSc1nc2ccccc2n1CC(=O)N1CCCC1	82%
CC(=O)Nc1ccc2c(c1)CCCN2C(=O)c1ccccc1	1%
Cc1cccc(CCNS(=O)(=O)c2cnc[nH]2)c1	-8%
COC(=O)CNC(=O)C12CC3(C)CC(C)(CC(C)(C3)C1)C2	56%
COc1ccccc1-c1cc(C(=O)NCc2ccc(F)cc2)no1	-16%
CCC(C)[C@@H](NC(=O)OC(C)(C)C)c1nnc(S(=O)(=O)Cc2cccc(C)c2)o1 (stereo partly drawn)	7.9µM*
CCN(C1CCCCC1)S(=O)(=O)c1cc(C)ccc1OC	20%
COC(=O)CSc1nc(C2CC2)nc2ccccc12	13%
COc1ccc2c(C(F)(F)F)cc(=O)oc2c1C	1%
O=C(c1ccc2c(c1)C(=O)N(Cc1ccco1)C2O)N1CCOCC1 (stereo not drawn)	11%
Cc1nc2sc(C(c3cccs3)N3CCN(C(=O)c4ccco4)CC3)c(O)n2n1 (stereo not drawn)	2%
Cc1nc2ccc(NC(=O)c3c(-c4ccccc4)noc3C)cc2s1	30%
COc1ccc(-n2c(=O)c(-c3cn(C)c4ccccc34)nc3cnc(N4CCOCC4)nc32)cc1	-4%
O=C(OCc1ccccc1)c1ccccc1O	1%
O=S(=O)(c1ccc2c(c1)OCCO2)N1CCC(c2nc3ccccc3[nH]2)CC1	?
CCOCCCNC(=O)c1ccccc1Br	7%
CCOC(=O)c1sc(NC(=O)CSc2nnc(-c3ccco3)o2)c(C(=O)OCC)c1C	18%
O=C(COc1ccc(Cl)cc1Cl)NC(=O)N1CCOCC1	0%
CC(=O)Oc1ccc2oc3c(c2c1)C(=O)CCC3	2%
O=C(NCc1ccc2c(c1)OCO2)C1CCCN1C(=O)Nc1ccccc1 (stereo not drawn)	4%
COc1cccc(CNC(=O)C2CCN(Cc3cnn(-c4ccccc4)c3-n3cccc3)CC2)c1	103%
COc1ccc(C2CC(C(F)(F)F)n3nc(C(=O)N(C)Cc4cn(C)nc4C)c(Cl)c3N2)cc1 (stereo not drawn)	?
Cn1cccc1Cc1nnc(SCC(=O)Nc2nc3ccccc3s2)n1CCc1ccccc1	29%
CN(C)c1ncc2ncc(=O)n(C)c2n1	8%
COc1ccccc1-n1nnnc1SCC(=O)Nc1cc(C)on1	-16%
Cc1ccc(S(=O)(=O)c2c(N)n(/N=C/c3ccco3)c3nc4ccccc4nc23)cc1	-2%
Clc1cccc(Cl)c1Cn1cnc(=NCc2ccco2)c2[nH]cnc21	19%
N#CC1=C(N)SC(N)=C(C#N)C1C1CC=CCC1 (stereo not drawn)	-14%
Cc1onc(-c2ccccc2Cl)c1C(=O)NC1CCS(=O)(=O)C1 (stereo not drawn)	3%

The list continues.
SMILES	AmpC nodet inh
CCOC(=O)C1CCN(Cc2nc3ccc(Cl)cc3n2CCO)CC1	10%
NC(=O)CSC1=Nc2ccccc2C2=NC(CC(=O)NCc3cccs3)C(=O)N12 (stereo not drawn)	0%
O=C(c1ccc2c(c1)OCCO2)C1CCN(C(=O)c2ccc(F)c(F)c2)CC1	39%
Cc1cc(N2CCN(S(=O)(=O)Cc3ccccc3)CC2)n2ncnc2n1	10%
COC(=O)c1ccc(Sc2ccc(C)cc2)c(N)c1	4%
COc1ccc(NC(=O)CC2Sc3ncnn3C2=O)cc1 (stereo not drawn)	23%
CC(C)CNS(=O)(=O)c1ccc(OCC(=O)Nc2ccc3c(c2)OCO3)c(Cl)c1	-2%
Cc1ccc2oc(=O)n(Cc3ccccc3OC(C)C)c2c1	-6%
O=C(O)CC(CC(=O)O)n1cccc1	-2%[5.75 µM]
COc1ccc(Cl)cc1NS(=O)(=O)c1ccc(S(=O)(=O)N2CCCC2)cc1	10%
COc1ccccc1NC(=O)c1cc(C(=O)O)ccc1C(=O)O	9%
CCNC(=O)NC(=O)COC(=O)CNC(=O)COc1ccccc1	-13%
CCOC(=O)c1cc(NC(=O)CSCCO)ccc1Cl	-4%

In the list so far, 19 have an aryl methoxy group.
SMILES	AmpC nodet inh
COc1cc(C(c2sc3nc(C)nn3c2O)N2CCN(c3ccccc3)CC2)cc(OC)c1OC (stereo not drawn)	-4%
COc1cc(C)c(C)cc1S(=O)(=O)N1CCN(Cc2ccccc2)CC1	98%
COc1ccc(CN(C2CCCC2)S(=O)(=O)c2ccc(-n3cnnn3)c(OC)c2)cc1OC	106%
COc1ccc(C(CC(=O)O)NC(=O)c2cccs2)cc1 (stereo not drawn)	-2%
COc1ccccc1CNC(=O)COC(=O)c1cnccn1	5%
COc1ccc(OC)c(C(c2nnnn2CCc2ccccc2)N2CCN(c3ccccc3)CC2)c1 (stereo not drawn)	28%
CCCCN(C(=O)c1cc(OC)c(OC)c(OC)c1)C1=CC2CCC(C1)N2C (stereo not drawn)	15%
COc1ccc(CNc2ncnc3ccc(-c4c(C)noc4C)cc23)c(OC)c1	32%
COc1cccc(NC(=O)C2CCN(c3ncccn3)CC2)c1	99%
COc1ccccc1-c1cc(C(=O)NCc2ccc(F)cc2)no1	-16%
CCN(C1CCCCC1)S(=O)(=O)c1cc(C)ccc1OC	20%
COc1ccc2c(C(F)(F)F)cc(=O)oc2c1C	1%
COc1ccc(-n2c(=O)c(-c3cn(C)c4ccccc34)nc3cnc(N4CCOCC4)nc32)cc1	-4%
COc1cccc(CNC(=O)C2CCN(Cc3cnn(-c4ccccc4)c3-n3cccc3)CC2)c1	103%
COc1ccc(C2CC(C(F)(F)F)n3nc(C(=O)N(C)Cc4cn(C)nc4C)c(Cl)c3N2)cc1 (stereo not drawn)	?
COc1ccccc1-n1nnnc1SCC(=O)Nc1cc(C)on1	-16%
COc1ccc(NC(=O)CC2Sc3ncnn3C2=O)cc1 (stereo not drawn)	23%
COc1ccc(Cl)cc1NS(=O)(=O)c1ccc(S(=O)(=O)N2CCCC2)cc1	10%
COc1ccccc1NC(=O)c1cc(C(=O)O)ccc1C(=O)O	9%
